Source: PubChem BioAssay (National Center for Advancing Translational Sciences (NCATS))
Menin-MLL FL inh = qHTS Assay for Inhibitors Targeting the Menin-MLL Interaction in MLL Related Leukemias: Competition With Fluorescein Labeled MLL-derived Peptide | AID 1766, 2009 | Fluorescence polarization, fluorescein-MLL peptide displacement from menin | FP activity change, % at 61.4 µM | 290,000 tested, under 10 active; inconclusive = falling polarisation curve, or a change in total fluorescence; inactive = total fluorescence flat and polarisation flat or rising; no compound was filed as active; the % refers to the polarisation; negative = inhibition;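 further: % of control where 0% means no effect; inhibitors lower the polarisation; unlabelled MLL peptide was the positive control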
TRPV1 PAM = HTS Assay for Compounds that Act as Potentiators of the Vanilloid Receptor 1; 0.02% of 320,000 active; TRPV1-expressing cells, Fluo-8 calcium influx, capsaicin EC20 potentiation; host cell line not named in the record; control for the full effect not named in the record; AID 540277, 2011; potentiation, % at 8.33 µM; active means potentiation above 80%; inconclusive means 30% to 80%; inactive means below 30%; further: 0% is about no effect
Target sequence (Q8NER1 whole entry, looked up): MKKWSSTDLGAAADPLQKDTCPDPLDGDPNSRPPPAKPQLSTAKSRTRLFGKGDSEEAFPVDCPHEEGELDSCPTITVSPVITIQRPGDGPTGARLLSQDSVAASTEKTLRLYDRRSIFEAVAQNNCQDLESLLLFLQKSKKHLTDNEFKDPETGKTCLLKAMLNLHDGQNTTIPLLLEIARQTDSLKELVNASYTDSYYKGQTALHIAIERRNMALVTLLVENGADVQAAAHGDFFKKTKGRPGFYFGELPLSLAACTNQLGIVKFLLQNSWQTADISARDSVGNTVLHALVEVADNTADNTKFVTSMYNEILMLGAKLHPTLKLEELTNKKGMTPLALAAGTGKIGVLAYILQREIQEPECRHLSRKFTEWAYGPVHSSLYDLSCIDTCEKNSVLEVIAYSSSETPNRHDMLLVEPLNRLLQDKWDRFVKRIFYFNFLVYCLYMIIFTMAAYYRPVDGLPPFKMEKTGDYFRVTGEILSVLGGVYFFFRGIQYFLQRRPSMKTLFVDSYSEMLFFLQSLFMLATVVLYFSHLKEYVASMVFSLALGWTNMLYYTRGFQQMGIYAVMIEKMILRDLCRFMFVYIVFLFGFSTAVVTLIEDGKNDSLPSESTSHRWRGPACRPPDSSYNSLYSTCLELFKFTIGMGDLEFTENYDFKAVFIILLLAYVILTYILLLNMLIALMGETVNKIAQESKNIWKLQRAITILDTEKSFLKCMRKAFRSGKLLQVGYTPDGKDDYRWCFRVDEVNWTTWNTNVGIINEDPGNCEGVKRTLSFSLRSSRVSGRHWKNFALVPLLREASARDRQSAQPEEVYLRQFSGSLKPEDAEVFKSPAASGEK
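TRPV1-expressing cells were cultured overnight at 35.5C and loaded with Fluo-8 calcium dye for 40 to 90 min at room temperature. After a 10 s baseline, compound was added and calcium influx was read kinetically for 3 min (ex 480/em 520 nm).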
Sfp PPTase inh = qHTS Assay for Inhibitors of Bacillus subtilis Sfp phosphopantetheinyl transferase (PPTase); Biochemical Sfp PPTase activity, qHTS; Potency, µM, for inactives: max response, negative = inhibition, hits mostly inhibitors; 3.5% of 310,000 active; active means well fitted inhibition curve with a large enough effect; inconclusive means small, poorly fitted or top-dose-only effect, or another doubt; inactive means no such curve, though single readings can be large or run the other way;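 further: the enzyme is Sfp with the accession as filed and its product quenches rhodamine fluorescence; potency means the concentration at half of the fitted maximal effect; 0% = enzyme reaction without inhibitor and -100% = no enzyme wells; top concentration of the series not given in the record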
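Buffer: 50 mM Hepes-Na pH 7.6, 10 mM MgCl2, 0.01% Nonidet P-40, 0.01% BSA. Enzyme 15 nM, pre-exposed to compound 15 min; substrates then added and fluorescence change tracked over 30 min.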
gsp antagonist = qHTS for Antagonists of gsp, the Etiologic Mutation Responsible for Fibrous Dysplasia/McCune-Albright Syndrome: qHTS; gsp-mutant cells, cAMP HTRF, 30 min; control for the full effect not named in the record; Potency, µM (top dose mostly 76.9 µM), for the others: at the top dose activity change, negative = inhibition, hits mostly inhibitors; 0.4% of 340,000 active; AID 624288, 2012; active = falling curve of any shape with a large fitted effect; inconclusive = falling curve, mostly with a smaller effect; inactive = flat or rising curve; cell line not stated here;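 further: intracellular cAMP measured with PDE inhibitor Ro 20-1724 present during compound exposure; potency means the concentration at half of the fitted maximal effect; on the % scale 0 is the no-effect control and ±100 the full control effect; nearly all actives have a fitted effect of over 65% in size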
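G418-selected cells were plated in DMEM/10% FBS for 16-24 h at 37C, then treated with compounds plus the PDE inhibitor […] (300 uM solution added) for 30 min at 37C. Intracellular cAMP was measured by HTRF after 30 min lysis at room temperature.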
ClpP mod = qHTS Assay for Activators of ClpP; ATP-dependent Clp protease proteolytic subunit (Bacillus subtilis (strain 168)), P80244; purified B. subtilis ClpP, FRET peptide cleavage, 20 min; Potency, µM (highest dose often 57.5 µM), for inactives: top-dose activity change, negative = active; 1.9% of 340,000 active; active = well fitted falling curve with a large enough effect; inconclusive = small, poorly fitted or top-dose-only effect; inactive = no such curve, though single readings can be large or run the other way; further: potency means the concentration at half of the fitted maximal effect; the source files actives as falling curves though it sought activators and does not explain the sign; nearly all actives have a fitted effect of over 65% in size; many hits overshoot -100%
Target sequence (P80244 whole entry, looked up): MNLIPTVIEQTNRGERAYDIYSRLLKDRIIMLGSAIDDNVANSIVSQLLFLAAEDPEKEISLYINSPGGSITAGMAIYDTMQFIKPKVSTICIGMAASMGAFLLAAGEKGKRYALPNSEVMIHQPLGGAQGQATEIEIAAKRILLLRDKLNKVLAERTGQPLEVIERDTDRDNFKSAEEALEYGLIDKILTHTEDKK
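FRET quenching reversal measured ClpP activation: 10 microg/mL B. subtilis ClpP at pH 8 with the FRET-FV decapeptide, read at 430 nm after 320 nm excitation. The 20-min minus 0-min signal was scaled between DMSO/no-enzyme wells and ADEP (5.8 microM final).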
gsp ag = qHTS for Agonist of gsp, the Etiologic Mutation Responsible for Fibrous Dysplasia/McCune-Albright Syndrome: qHTS; gsp mutant cells, cAMP HTRF, 30 min; control for the full effect not named in the record; Potency, µM (titrated, usually from 76.9 µM), for inactives: at the top dose activation (cAMP increase), hits mostly activators; 0.13% of 340,000 active; active = well fitted activation curve with a large enough effect; inconclusive = small, poorly fitted or top-dose-only effect, or another doubt; inactive = no such curve, though single readings can be large or run the other way; cell line not stated here;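 further: phosphodiesterase inhibitor Ro 20-1724 added with compounds to block cAMP breakdown; potency means the concentration at half of the fitted maximal effect; nearly all actives have a fitted effect of over 60% in size; about a fifth of the inactives were tested at one dose only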
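Cells stably selected in G418 were plated at 2000/well, grown 16-24 hr, then given compounds in DMSO with the PDE inhibitor […] (300 uM solution added) for 30 min at 37C; cAMP was read by HTRF.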
CtBP-E1A inh = qHTS Assay for Inhibitors of the CtBP/E1A Interaction. CtBP / adenovirus E1A interaction (AlphaScreen). AlphaScreen GST-E1A/His-CtBP binding, 1536-well; active compounds read low; control for the full effect not named in the record. 0.49% of 340,000 active. AID 651724, 2012. activity change, % (test concentration not listed); in the data active means activity change below about -65%; inconclusive means about -30% to -65%; inactive means above about -30%; further: on the % scale 0 is the no-effect control and ±100 the full control effect
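AlphaScreen with 125 nM GST-E1A and 125 nM His-CtBP (5X stocks) in Tris pH 8.0, 300 mM NaCl, BSA, Tween 20, TCEP. Compounds preincubated 2 h at 37 deg C, then glutathione donor/nickel acceptor beads added for 1 h at 37 deg C in dark.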
* hit, by the source's call; ? = inconclusive; . = not tested or not shown; & = joins results of further samples; [ ] = remark or other dose.

Results follow in this order: Menin-MLL FL inh, TRPV1 PAM, Sfp PPTase inh, gsp antagonist, ClpP mod, gsp ag, CtBP-E1A inh
> COC(C(=O)Nc1c(F)cccc1F)c1ccccc1 (stereo not given)
    -1.4, 11, 11%, -5%, ., 11%[15.4 µM], 0
> Cc1cccc(C(=O)NCCN2CCN(c3ccccc3)CC2)c1
    0.8, -16, -3%, 4%, -3.7%, 0%, 0
> Cc1ccc(OCCOC(=O)c2nc3nccc(C)n3n2)cc1
    1.0, -7, 16%, 1%, ., 11%[15.4 µM], .
> COc1cccc(CNC(=O)Nc2cccs2)c1
    4.6, -14, 45µM*, -10%, -2.6%, 24%, -3
> CN(Cc1nccs1)C(=O)C1CCC(=O)N(CCCc2ccccc2)C1 (stereo not given)
    -0.1, 9, 18%, 5%, 0.4%, 4%, -5
> N#Cc1cnn(-c2ccccc2)c1NC(=O)CN1CCOCC1
    2.4, -24, 0%, 4%, ., -15%, 10
> COc1ccccc1NC(=O)CSc1nnc(C)n1CC1CCCO1 (stereo not given)
    9.6, -1, 15%, -8%, -2.2%, 1%, 2
> CC1Cc2ccccc2N1CC(=O)N(C)c1c(N)n(Cc2ccccc2)c(=O)[nH]c1=O (stereo not given)
    ., -7, ., 11%, -10%, -15%, -11
> O=C1OC(c2ccc(Cl)cc2)=N/C1=C\c1cccnc1
    1.9, 12, 16%, 8%, 3.2µM*, -2%, 10
> CCOc1cc(NC(=S)NCCCN2CCOCC2)c(OCC)cc1NC(=O)c1ccc(C)cc1
    2.7, 4, -12%, -10%, ., ?, -2
> CC(Oc1ccccc1)C(=O)N=C1SC2CS(=O)(=O)CC2N1c1ccc(F)cc1 (stereo not given)
    ., 3, -1%, 9%, -2.9%, 2%, 0
> CC(C)Oc1ccc(C2CC(=O)N(c3cccc(/C=C/C(=O)O)c3)C2=O)cc1 (stereo not given)
    -1.0, ?, 13%, -1%, ., ?, 9
> CCCCC1CCC(C(=O)NCc2ccc3c(c2)OCO3)CC1 (stereo not given)
    -1.9, 17, 20%, 10%, -1.5%, -33%[inhibitor], 8
> Cc1c(/C=N/NC(=O)C(NC(=O)c2ccc3c(c2)OCO3)C(C)C)c2ccccc2n1C (stereo not given)
    ., 19, -5%, -7%, -12%, 12%, 2
> CC(C)(SC(=S)N1CCCCCC1)C(=O)O
    0.1, 7, 79µM*, ., ., -17%[15.4 µM], -17
> COc1cc(OC)cc(C(=O)NCCC(c2ccccc2)c2ccccc2)c1
    -27, -20, 13%, -7%, -9.4%, -7%, .
> CC(C)Sc1cc(N2CCCC2)nc(-c2ccc(F)cc2)n1
    4.8, 3, -14%, 5%, -20%, 5%, 11
> CCc1c(C)sc(NC(=O)C2CC2c2ccccc2)c1C(N)=O (stereo not given)
    4.9, -18, -4%, 3%, -1.6%, 9%, 6
> COc1cccc(/C=N/NC(=O)c2cc(-c3ccccn3)nc3ccccc23)c1O
    ., 1, ., -4%, ., -1%[15.4 µM], -95*
> COC(=O)c1ccc(CSc2nnc(-c3ccncc3)o2)cc1
    -2.1, -8, 10%, -1%, -10%, -38%[inhibitor], -4

Taken from above.
COc1cccc(/C=N/NC(=O)c2cc(-c3ccccn3)nc3ccccc23)c1O | CtBP-E1A inh: -95*
COc1ccccc1NC(=O)CSc1nnc(C)n1CC1CCCO1 (stereo not given) | CtBP-E1A inh: 2
N#Cc1cnn(-c2ccccc2)c1NC(=O)CN1CCOCC1 | TRPV1 PAM: -24
CCOc1cc(NC(=S)NCCCN2CCOCC2)c(OCC)cc1NC(=O)c1ccc(C)cc1 | Sfp PPTase inh: -12%

Further records:
Results follow in this order: Menin-MLL FL inh, TRPV1 PAM, Sfp PPTase inh, gsp antagonist, ClpP mod, gsp ag, CtBP-E1A inh
> Cc1nc2ccccc2c(=O)n1CCc1ccc(O)cc1
    5.5, -6, 14%, 5%, ., ?, -1
> Cc1cc2oc(=O)cc(CN3CCCc4ccccc43)c2cc1C
    ?, -2, -26%, 3%, -5.2%, -30%, -9
> COCc1cc(C)nc(Nc2ccccc2OC)c1C#N
    -3.4, 4, 9%, -4%, -24%, 12%, .
> COc1cc2c(cc1OC)CN(C(=O)c1cc3ccccc3oc1=O)CC2
    -1.2, -7, 17%, -5%, 0.5%, 13%, -6
> CN1CCN(C(=O)C2CCCN(S(=O)(=O)c3ccc(Cl)cc3)C2)CC1 (stereo not given)
    ., -9, -25%, -8%, -0.8%, -8%, -5
> CCOc1ccc(C(C)=O)cc1CC(C(N)=O)C(N)=O
    -0.7, -8, 14%, 3%, 2.1%, -25%, 7
> CC(=O)CSc1nnc(-c2ccc(S(=O)(=O)N3CCOCC3)cc2)n1C
    -1.0, 2, 16%, -1%, ., 0%, 3
> COCCN(C(=O)c1csnn1)C(C(=O)NC1CCCC1)c1ccccc1F (stereo not given)
    1.4, 12, 22%, 7%, ., 25%, 1
> Cn1ncc(Cl)c1C(=O)N1CCN(S(=O)(=O)c2ccc(Cl)s2)CC1
    0.6, -2, 21%, 2%, 0.7%, -24%, 11
> C#CC(C)OCC1CNC(=S)O1 (stereo not given)
    ., ., ., ., -0.9%, -34%[inhibitor], 6
> COc1cc([N+](=O)[O-])cc(CN2CCCCC2)c1O
    -0.4, -10, -3%, 8%, -0.6%, -4%, 0
> O=S(=O)(Nc1cccc(-c2ccc(N3CCCCCC3)nn2)c1)c1cccc(F)c1
    1.5, 4, 11%, ?, -1.9%&-3.2%, 6%, .
> Cc1cnc(C(=O)OC(C)C(=O)Nc2cccc3ccccc23)cn1 (stereo not given)
    ., 0, ., 9%, ., -23%[15.4 µM], -25
> Cc1ccc(SCCC(=O)Nc2cc(C)on2)cc1
    -6.2, -49, 9%, -8%, ., -28%[15.4 µM], 7
> CN(C(=O)COC(=O)c1ccccc1NCCO)C1CCS(=O)(=O)C1 (stereo not given)
    ., -10, ., 13%, 20µM*, 4%[15.4 µM], 5
> CCCn1nnnc1NC(=O)c1cccs1
    0.6, -13, -26%, 4%, -1.2%, -31%[inhibitor], -1
> CCn1c2ccc(C)cc2c2nnc(NN)nc21
    0.3, 5, -17%, 9%, -15%, -10%[15.4 µM], 15
> COC(=O)/C(C(C)=O)=C(/C=C/C=C/N(C)C)N(C)C
    -15, -5, -6%, 7%, 0.9%, -27%, 13
> Cc1ccc(C)c2[nH]c(=O)c(CN(CCN3CCCC3)C(=O)Nc3cccc(Cl)c3)cc12
    ?, ?, 14µM*, 3%, -15%, 7%, -6
> C=C1CCN(C(C)C(=O)OC)S(=O)(=O)c2ccccc21 (stereo not given)
    -1.8&-2.9, -9, -12%&1%, -3%, 0.1%, ., 3
> CCNC(=O)c1ccc(C23CC4CC(CC(C4)C2)C3)o1
    0.8, -9, 17%, 3%, ., 14%, 0
> O=C(NCC1CC1(Cl)Cl)Nc1ccc(Cl)c(Cl)c1 (stereo not given)
    4.4, -6, -5%, ?, ., -7%, 17
> O=C(C1=C[C@H](c2coc3ccccc3c2=O)C[C@H](OCCCCO)O1)N1CCOCC1
    3.3, 19, 12%, 5%, 1.9%, ., -14
> Cc1ccc2oc(C(=O)N3CCC(O)(c4ccccc4)CC3)c(C)c2c1
    0.9, -6, -2%, 3%, 0.0%, -3%, .
> CC1CCCN(S(=O)(=O)c2cccc(C(=O)NCC3CCCO3)c2)C1 (stereo not given)
    ., ., ., 7%, -0.6%, -9%[15.4 µM], 9
> COc1ccc(CNC(=O)c2cnc(C)cn2)cc1
    2.7, 17, 15%, -1%, 0.3%, 4%, 4
> O=C(CN(c1ccc(F)cc1)S(=O)(=O)c1ccc2c(c1)OCCO2)NCc1cccnc1
    0.7, -8, 21%, -4%, 1.0%, ?, -1
> Cn1c(=O)c(Sc2ccc(Cl)cc2)c(O)c2ccccc21
    1.9, 9, -4%, 18%, 0.0%, 16%[15.4 µM], 2
> Cc1ccc(N(CC2CO2)S(=O)(=O)c2ccc(C)cc2)cc1 (stereo not given)
    0.4, -25, 4%, 9%, ., 15%, 3
> CCC(NC(=O)c1ccncc1)c1ccccc1 (stereo not given)
    -0.6, 7, 14%, 4%, ., -1%, -1
> Cc1ccc(-n2nnnc2SCC(=O)Nc2c(C)n(C)n(-c3ccccc3)c2=O)cc1
    7.6, 3, 6%, 1%, -0.8%, -24%, 7
> CCCn1nnc(NC(=S)NC(=O)c2ccccc2OC)n1
    ., ., ., 5%, -0.1%, 9%, .
> Cc1ccc2c(c1)C(=O)C(=O)N2Cc1ccccc1
    ., ., ., 12%, 1.9%, -3%, 1
> O=C(C(Cl)Cl)N1c2ccccc2OCC1c1ccccc1 (stereo not given)
    -1.4, -12, -4%, ?, -0.2%, -54%[inhibitor], 6
> CCCCCCC(=O)NNC(=O)c1c(O)c2ccccc2n(CCC)c1=O
    -1.7, -3, -8%, 11%, 2.3%, -5%[15.4 µM], 6
> C=CCn1c(Cc2csc(N)n2)nnc1SCC(=O)Nc1ccc(C(=O)OCC)cc1
    0.6, 9, 15%, -2%, 0.0%, -40%[inhibitor], 7
> COc1ccc(CC(=O)Nc2ccccc2N2CCCC2)cc1OC
    ., 12, 13%, 1%, -0.3%, -21%, 0

Two records drawn at random from the list so far, as already listed:
Results follow in this order: Menin-MLL FL inh, TRPV1 PAM, Sfp PPTase inh, gsp antagonist, ClpP mod, gsp ag, CtBP-E1A inh
> Cc1ccc2c(c1)C(=O)C(=O)N2Cc1ccccc1
    ., ., ., 12%, 1.9%, -3%, 1
> O=C(NCC1CC1(Cl)Cl)Nc1ccc(Cl)c(Cl)c1 (stereo not given)
    4.4, -6, -5%, ?, ., -7%, 17
